# NPYLR7 agonist = agonists of mosquito NPYLR7 receptor, primary screen, cell-based, Aedes aegypti, calcium fluorescence, mosquito biting behavior; AID 1259423, 2018; 270,000 tested, 0.15% active; activation, % at 10 µM; HEK293T NPYLR7/Galpha15, GCaMP6s calcium fluorescence; in the data active = activation above about 40%;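 also: 0% = vehicle and 100% = reference agonist at the receptor; some compounds past the cut are filed as inactive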
# NPYLR7 agonist max-min = recorded beside NPYLR7 agonist, whose call it bears; activation, %; measured here: Max-Min RFU normalised activation; some inactives read as strong as hits;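 span of the calcium signal over five minutes; 0% = vehicle and 100% = native peptide agonist; compound fluorescence can raise it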
# * = called active by the depositor; & = joins results of further samples. Not all compounds are listed. The share of hits here may be higher or lower than overall.
SMILES,NPYLR7 agonist,NPYLR7 agonist max-min
CCOc1ccc(-n2c(SC(C)c3ccccc3)nc3c(c2=O)SCC3)cc1 (stereo not given),0,53
COc1cccc(-c2ccccc2NC(=O)C2CCN(Cc3cccc4ncccc34)CC2)c1,-4,-12
CCCNC(=O)N1CCN(c2cccc(F)c2)C(=O)C1C (stereo not given),-12,-6
COc1ccccc1CCN1CCCC(CN(C)C(=O)Cc2[nH]nc3ccccc23)C1 (stereo not given),4,4
CN(C)C(=O)c1cccnc1SCc1ccc2ccccc2c1Br,6,1
CCOC(=O)c1nn(-c2ccccc2Cl)c(=O)cc1OCC(N)=O,12,6
COc1ccc(NC(=O)C(C2CCCC2)N2CCN(C(=O)c3ccc(F)cc3F)CC2)cc1 (stereo not given),-1,3
Cc1cccc(COCC2CN(C(=O)c3ccc(C)nc3Cl)CCO2)c1 (stereo not given),32,35
CC1CCc2c(sc3[nH]c(=S)n(Cc4ccco4)c(=O)c23)C1 (stereo not given),-1,2
O=C1CCCN1CC1CCN(C(=O)c2ccc3nc(C4CCCCC4)oc3c2)CC1,2,2
COc1cc(CC(=O)N(CCS(C)(=O)=O)C2CC2)ccc1C,-1,-3
COCCCN(CC(=O)N(CCc1c[nH]c2ccccc12)Cc1ccc(C)cc1)C(=O)Nc1ccc(C)c(Cl)c1,25,15
CN(C)CCC1CCCNC1 (stereo not given),-17,-20
CCN(CC)C1=CC(=[N+]2CCCC2)CC(C)(C)C1,2,0
COCCNC(=O)Cn1nc2c(c1NC(=O)c1cnccn1)CSC2,-3,4

# Reprinted from the part before: two compounds; new compounds follow.
SMILES,NPYLR7 agonist,NPYLR7 agonist max-min
CCN(CC)C1=CC(=[N+]2CCCC2)CC(C)(C)C1,2,0
COCCNC(=O)Cn1nc2c(c1NC(=O)c1cnccn1)CSC2,-3,4
Cn1c(=O)c2c(nc(N3CCOCC3)n2CCO)n(C)c1=O,-2,-3
c1csc(Cn2nnnc2Sc2ncnc3sccc23)c1,2,14
Cc1nc2ncccn2c1C(=O)N1CCC2(CCCO2)CC1,1,0
CCC(CC)N(CCOC)S(=O)(=O)c1ccc(S(N)(=O)=O)cc1,-8,-9
Cc1ccc(-c2nnc(CN(C)C(C)c3ccon3)o2)n1C (stereo not given),3,1
CC1(C(=O)NS(=O)(=O)c2cccc(Cl)c2)CCN1C(=O)c1ccco1 (stereo not given),5,4
COc1ccc(CNc2ccn3nccc3n2)cc1,5,3
Cc1csc(SCc2ccccc2C(=O)OC(C)C(=O)Nc2ncnc3nc[nH]c23)n1 (stereo not given),-1,-2
CCOC(=O)Cn1c(O)c(N=NC(=O)CNC(=O)COc2ccccc2)c2ccccc21,9,14
Cc1ccc(C2=NOC(CN(C)C(=O)NC(C)C)C2)cc1 (stereo not given),-3,6
CN1C(=O)N(Cc2cccnc2)C(=O)C12CCN(Cc1ccc(-c3cccc(Cl)c3)o1)CC2,22,11
Cc1ccc(C(=O)OCc2ccc(Cl)s2)cc1S(C)(=O)=O,-4,-4
O=C(Cn1cnc(-c2ccccc2)cc1=O)NCCC(c1ccccc1)c1ccccc1,14,5
CC(C)Nc1nc(Oc2ccc(=O)[nH]n2)nc(N(C)C)n1,2,-1
COC(=O)c1ccccc1NC(=O)Cn1c(=O)nc2c3c4c(sc3ncn21)CC(C(C)(C)C)CC4 (stereo not given),-2,-2
COc1ccc(C(C2Sc3nc(C)nn3C2=O)N2CCN(CCO)CC2)cc1 (stereo not given),0,-2
CC(=O)Nc1cc(NC(=O)NC(C)(C)c2cccc(C)c2)ccc1C,2,25
CN(C)CCN(C(=O)CCS(=O)(=O)c1ccc(Cl)cc1)c1nc2ccccc2s1,-4,-6
O=C(COc1ccccc1F)Nc1ccc2c(c1)NC(=O)CO2,-2,-3
CCn1nccc1NC(=O)C1(C)CCN1C(=O)CCc1ccc(Cl)cc1Cl (stereo not given),2,1
O=C1CCC(C(=O)N2CCC(Cc3ccc(F)cc3)CC2)CN1Cc1ccccn1 (stereo not given),5&0,3&-3
COc1cc(C(=O)N[C@H](C(=O)Nc2nccs2)C(C)C)cc(OC)c1OC,1,1
Cc1ccc(Cc2nsc(N(CCC(=O)NCCCN3CCCCC3C)Cc3ccco3)n2)cc1 (stereo not given),4,3
Cc1ccccc1-n1c(SCc2nc(C(=O)NCCC(c3ccccc3)c3ccccc3)cs2)nnc1-c1ccncc1,-10,-12
Cc1cccc(OCCN=C2NS(=O)(=O)c3ccccc32)c1,0,5
COc1ccccc1C1CC1C(=O)Nc1ccc(-c2nnc(C)o2)cc1 (stereo not given),8,5
COc1ccc(-c2nc(N3CCc4ccccc4C3)[nH]c(=O)c2C#N)cc1,-4,-5
O=C1C=C(N2CCCCC2)C2(CCCCC2)O1,-2,-3
COCCN(CC(=O)N(CCc1c[nH]c2ccccc12)Cc1ccc(OC)c(OC)c1)C(=O)Nc1ccc([N+](=O)[O-])cc1,-5,4
CCCCn1c(O)c(C=Nc2ccccc2C(=O)O)c(C)c(C#N)c1=O,2,-1
Cn1c(-c2cccs2)nn(CCNS(=O)(=O)/C=C/c2ccccc2)c1=O,10,10
Cc1cc(C)n(-c2ccc(N3CCN(C(=O)c4ccccc4Cl)CC3)nn2)n1,-2,-8
COc1cccc(C(CN2CCN(C(=O)c3cccnc3Cl)CC2)OCc2ccc(C#N)cc2)c1 (stereo not given),-3,3
Cc1cc(Oc2cc(N(C)Cc3ccccc3)ncn2)ccc1Cl,-19,-12
O=C(Nc1ccc(Cl)cc1)Nc1nnc(-c2ccco2)s1,-14,-23
COc1ccc(NC(=O)c2cc(Cl)ccc2F)cc1S(=O)(=O)N(C)C,15,14
CC(C)Cc1noc(C2CCCN(Cc3cn[nH]c3-c3ccc(F)cc3)C2)n1 (stereo not given),-1,-7
O=S(=O)(c1ccc(Br)cc1)N1CCCC(c2nc(-c3cccs3)no2)C1 (stereo not given),-3,-6
Cc1nc2ccccn2c1C(=O)N1CCCC(Cn2cc(C3CC3)nn2)C1 (stereo not given),7,7
CCC(CC)(CCC#N)CNC(C)(C)CN1CCCC1,3,2
COc1ccc2sc(N(CC3CCCO3)C(=O)c3cc(C)nn3C)nc2c1 (stereo not given),9,6
CN(C)CCNC(=O)c1coc(CN(CCc2c[nH]c3ccccc23)Cc2ccc(F)cc2F)n1,18,38
CCN(CCN(C)C)C1CCC(c2ccccc2)CC1 (stereo not given),3,24
CC1(C)NC(=O)N(CCCCSc2ccc(Cl)cc2)C1=O,-4,11
CCCS(=O)(=O)N1CCN(C2CCCC(C)C2)CC1 (stereo not given),13,4

# Arranged by SMILES length (falling): part of the list above.
SMILES,NPYLR7 agonist,NPYLR7 agonist max-min
COCCN(CC(=O)N(CCc1c[nH]c2ccccc12)Cc1ccc(OC)c(OC)c1)C(=O)Nc1ccc([N+](=O)[O-])cc1,-5,4
COCCCN(CC(=O)N(CCc1c[nH]c2ccccc12)Cc1ccc(C)cc1)C(=O)Nc1ccc(C)c(Cl)c1,25,15
CN1C(=O)N(Cc2cccnc2)C(=O)C12CCN(Cc1ccc(-c3cccc(Cl)c3)o1)CC2,22,11
CN(C)CCNC(=O)c1coc(CN(CCc2c[nH]c3ccccc23)Cc2ccc(F)cc2F)n1,18,38
COc1cccc(C(CN2CCN(C(=O)c3cccnc3Cl)CC2)OCc2ccc(C#N)cc2)c1 (stereo not given),-3,3
COc1ccc(NC(=O)C(C2CCCC2)N2CCN(C(=O)c3ccc(F)cc3F)CC2)cc1 (stereo not given),-1,3
CCOC(=O)Cn1c(O)c(N=NC(=O)CNC(=O)COc2ccccc2)c2ccccc21,9,14
Cc1cc(C)n(-c2ccc(N3CCN(C(=O)c4ccccc4Cl)CC3)nn2)n1,-2,-8
O=S(=O)(c1ccc(Br)cc1)N1CCCC(c2nc(-c3cccs3)no2)C1 (stereo not given),-3,-6
Cn1c(-c2cccs2)nn(CCNS(=O)(=O)/C=C/c2ccccc2)c1=O,10,10
CCOc1ccc(-n2c(SC(C)c3ccccc3)nc3c(c2=O)SCC3)cc1 (stereo not given),0,53
COc1ccc(NC(=O)c2cc(Cl)ccc2F)cc1S(=O)(=O)N(C)C,15,14
CCCCn1c(O)c(C=Nc2ccccc2C(=O)O)c(C)c(C#N)c1=O,2,-1
CC(=O)Nc1cc(NC(=O)NC(C)(C)c2cccc(C)c2)ccc1C,2,25
COc1ccccc1C1CC1C(=O)Nc1ccc(-c2nnc(C)o2)cc1 (stereo not given),8,5
CCOC(=O)c1nn(-c2ccccc2Cl)c(=O)cc1OCC(N)=O,12,6
Cc1ccc(C(=O)OCc2ccc(Cl)s2)cc1S(C)(=O)=O,-4,-4
Cn1c(=O)c2c(nc(N3CCOCC3)n2CCO)n(C)c1=O,-2,-3
O=C(COc1ccccc1F)Nc1ccc2c(c1)NC(=O)CO2,-2,-3
O=C(Nc1ccc(Cl)cc1)Nc1nnc(-c2ccco2)s1,-14,-23
CCN(CC)C1=CC(=[N+]2CCCC2)CC(C)(C)C1,2,0
CCC(CC)(CCC#N)CNC(C)(C)CN1CCCC1,3,2
O=C1C=C(N2CCCCC2)C2(CCCCC2)O1,-2,-3
COc1ccc(CNc2ccn3nccc3n2)cc1,5,3
CN(C)CCC1CCCNC1 (stereo not given),-17,-20

# Other results follow:
SMILES,NPYLR7 agonist,NPYLR7 agonist max-min
CC(C)c1nccn1CC1CCN(C(=O)C2(c3ccccc3)CCOCC2)CC1,0,-3
CC(Cn1cncn1)NC(=O)c1cn(Cc2ccccc2C(F)(F)F)nn1 (stereo not given),5,5
O=C1CC2(CCN(C(=O)c3cccc(Cl)c3)CC2)CN1,3,2
COC[C@H]1C[C@H]2C[C@@H](OC)[C@H](N3CCC(c4ccccc4)CC3)[C@]2(O)CO1,2,8
O=C(NCc1cccc(C(F)(F)F)c1)c1csc(CSc2nnc(-c3ccco3)n2-c2ccc(Cl)cc2Cl)n1,2,13
O=C(Nc1c[nH]c2ccccc12)N1CCN(c2ccccc2)CC1,2,-3
CCOC(=O)C1CCCN(c2nc(-c3ccc(OC)cc3)c3c(N)n(C)nc3n2)C1 (stereo not given),4,1
NC(=O)c1ccc(OCc2cc3c(cc2Br)OCCO3)cc1,1,3
CCNc1nc(NCC)n2c(SCC(=O)Nc3c(F)c(F)c(F)c(F)c3F)nnc2n1,5,5
COc1cc(OC)cc(C(=O)N(CC(=O)N2CCc3sccc3C2c2ccccc2C)CC2CCCO2)c1 (stereo not given),2,10
CC(=O)c1sc(=Nc2ccccc2)n(N2CCOCC2)c1C,-4,-7
CC(C)N1CCC(CNC(=O)C(C)(C)C)CC1,-7,-10
O=C(CSc1nc(=O)n2ccccc2n1)NCCc1ccccc1,3,1
O=C(CNC(=O)c1ccccc1Br)NCCN1C(=O)SC(=Cc2ccccc2)C1=O,3,2
Cn1c(=O)[nH]c(=O)c2c1nc(N1CCN(c3ccccc3F)CC1)n2CCCSc1ncccn1,-4,-5
O=C(Nc1ccc(-n2nc(OCc3ccc(F)cc3)nc2-c2cccc(C(F)(F)F)c2)cc1)c1ccc([N+](=O)[O-])cc1,5,8
COc1ccc(C(=O)C(C#N)c2nc(C)cs2)cc1S(=O)(=O)NC1CC1 (stereo not given),-5,-5
CC(=O)c1ccc(NS(=O)(=O)c2ccc(Br)cc2Cl)cc1,0,0
CS(=O)(=O)c1cccc(OCCn2ccc(=O)c3ccccc32)c1,5,2
CC(=O)NC1=NN(C(C)=O)C2(S1)C(=O)N(CCC(C)C)c1ccccc12 (stereo not given),1,-1
CCN(CC)Cc1cc(NC(=O)C2(C)CCc3c(C)c(O)c(C)c(C)c3O2)ccc1O (stereo not given),-7,-15
Cc1cc(C)nc(SCc2cc(=O)c(OC(=O)c3cccc([N+](=O)[O-])c3)co2)n1,-13,-11
COc1ccc(C2CC(c3cccc(F)c3)=NN2C(=O)CN2CCOCC2)cc1 (stereo not given),23,21
CC(C)(CCl)C(=O)Nc1cccc(C2SCC(=O)N2c2ccc(C(F)(F)F)cc2)c1 (stereo not given),10,15
CC(=O)C(C(C)=O)=C1SCC(C)S1 (stereo not given),11,17
O=C(CCN(CCc1ccccc1)c1nc(-c2ccco2)nc2ccccc12)Nc1ccc(F)cc1,-8,-3
Cc1ccc(-n2ncc3c(NCCO)nc(N4CCCC4)nc32)cc1,-1,-4
COc1ccc(C2=NN(C(=O)CN3CCN(C(C)=O)CC3)C(c3ccccc3OC)C2)cc1OC (stereo not given),11,15
O=C(NCc1ccccc1Sc1ccccc1CO)c1cc2c(nc1Cl)CCC2,-8,-12
Cc1ccc(-c2nn(-c3ccccc3)cc2N)cc1,-4,-5
CCCCS(=O)(=O)NCCOc1ccc(C)cc1,9,8
Cc1ccc2c(c1)C1(CC(=O)N(Cc3ccccc3)C1=O)C(=O)N2CCCn1c(=O)c2c(ncn2C)n(C)c1=O (stereo not given),42,29
CCN(CC)C(=O)Oc1ccc2c(ccn2Cc2cccc(C)c2)c1NC(=O)CCC(=O)OC,-3,-12
CC(C)C(NC(N)=O)C(=O)Nc1cc(F)cc(F)c1 (stereo not given),-2,-2
Cc1nc2n(n1)C(=O)C(C(c1cccs1)N1CCOCC1)S2 (stereo not given),6,1
CCCc1ccc(S(=O)(=O)Nc2ccccc2Cn2cncn2)cc1,3,1
COc1cccc(-n2c(-c3ccc(Cl)cc3)cc(C(=O)NC(C)CCc3ccccc3)c2C)c1 (stereo not given),-2,7
CC(C)(C)c1cc(NC(=O)CN(Cc2ccccc2)C(=O)c2ccccc2F)n(-c2ccccc2Cl)n1,3,3
CC(C)c1ccccc1SCc1csc(-c2ccc(Cl)cc2)n1,5,2
Cc1cnn(CC2CCN(C(=O)c3cn[nH]n3)CC2)c1,3,-7
CCOC(=O)c1ccc(NC(=O)CSc2nc(=O)n(CCN3CCOCC3)c3c2CCC3)cc1,-2,-7
O=C(c1ccc(F)cc1)N(Cc1ccc2c(c1)OCO2)Cc1cc(Cl)ccc1OCc1nc(CO)cs1,17,16
CCCc1[nH]n(-c2cccc(Cl)c2)c(=O)c1C1=C([n+]2cccc(C)c2)C(=O)N(Cc2ccccc2)C1=O,-7,-7
O=c1c(N=Nc2cccc(O)c2)c(-c2ccc([N+](=O)[O-])cc2)[nH]n1-c1ccccc1,-4,-4
Cc1ccc(S(=O)(=O)N(C)CC(O)COc2c(C)cc(C)cc2C)cc1 (stereo not given),-5,-4
